From PubChem
eIF4H inh: inhibitors of RNA binding by human eIF4H | inhibition, % at 35 µM | AID 2012 | 290,000 compounds, 0.94% hits | Q15056 | eIF4H fluorescence polarization binding assay;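 active means 50% or more with normal probe brightness, or confirmed in later tests; about a fifth of its hits are not listed in these tables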;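 further: calls also rest on retests at 20 µM and on dose response follow-up; 0% = protein and probe with vehicle and 100% = probe without protein; strong numbers were not always called active; many hits fall short of the cut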
PABP polyA inh: PABP-poly(A) binding inhibition; P11940; PABP-poly(A) RNA binding, fluorescence polarization; inhibition, % at 35 µM; 290,000 compounds, 1% hits; AID 2014;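 active means 50% or more with normal probe brightness, or confirmed in later tests; about a fifth of its hits are not listed in these tables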;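 further: calls also rest on retests at 20 µM and on dose response follow-up; controls were probe without protein and protein plus probe with vehicle; some compounds called inactive have numbers as strong as hits; many hits fall short of the cut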
Target sequence (P11940 whole entry, looked up): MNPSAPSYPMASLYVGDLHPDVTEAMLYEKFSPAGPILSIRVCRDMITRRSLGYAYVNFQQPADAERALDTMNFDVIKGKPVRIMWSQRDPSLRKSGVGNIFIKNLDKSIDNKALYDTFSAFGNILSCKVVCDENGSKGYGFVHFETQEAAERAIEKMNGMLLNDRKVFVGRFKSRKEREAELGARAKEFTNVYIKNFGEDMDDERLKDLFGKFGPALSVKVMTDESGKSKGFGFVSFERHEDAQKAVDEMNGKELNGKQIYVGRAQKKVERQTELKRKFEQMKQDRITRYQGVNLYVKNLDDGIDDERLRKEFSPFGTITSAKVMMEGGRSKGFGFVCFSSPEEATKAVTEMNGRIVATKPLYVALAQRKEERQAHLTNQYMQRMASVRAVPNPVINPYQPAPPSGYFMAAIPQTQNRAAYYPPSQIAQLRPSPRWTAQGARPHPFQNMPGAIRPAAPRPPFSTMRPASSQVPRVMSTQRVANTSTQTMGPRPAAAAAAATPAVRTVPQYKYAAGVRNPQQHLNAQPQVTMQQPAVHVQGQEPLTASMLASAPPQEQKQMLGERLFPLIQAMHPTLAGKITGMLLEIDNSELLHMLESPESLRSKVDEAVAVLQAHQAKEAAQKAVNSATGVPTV
Env fusion inh: HIV envelope-mediated fusion inhibition | HeLa-JRFL Env/CEM21 cell fusion, luciferase | inhibition, % at 12.3 µM | 360,000 compounds, 1.1% hits;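 active means mean replicate inhibition score of at least 50 and every replicate individually at or above 50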;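 further: 0% = plate neutral controls and 100% = maraviroc near 300 nM; one replicate is shown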
Rce1 inh: inhibitors of yeast Ras-converting enzyme. yeast membranes, quenched prenylated peptide cleavage fluorescence. calls only. 290,000 compounds, 0.27% hits. AID 2563;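 active means fall in fluorescence gain of 50% or more versus controls, with final raw signal at or below 3038400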;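 further: plate controls were neutral control wells for no effect and wells lacking membranes for full effect; tested at 10 µM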
Target sequence (Q03530 whole entry, looked up): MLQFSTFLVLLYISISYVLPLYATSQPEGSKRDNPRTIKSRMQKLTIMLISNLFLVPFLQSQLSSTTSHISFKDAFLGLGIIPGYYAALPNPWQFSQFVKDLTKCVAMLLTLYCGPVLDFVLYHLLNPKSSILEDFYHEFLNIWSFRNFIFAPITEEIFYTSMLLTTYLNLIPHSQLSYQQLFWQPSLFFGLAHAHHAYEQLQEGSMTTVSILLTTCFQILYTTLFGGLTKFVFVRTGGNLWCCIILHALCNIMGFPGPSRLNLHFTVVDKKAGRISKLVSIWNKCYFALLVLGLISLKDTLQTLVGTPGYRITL
MT1-MMP act inh: MT1-MMP (human) activation inhibition; P50281; HT1080 RFP-PRO-GFP cells, GFP/RFP ratio fluorescence, overnight; percent of plate control window, DMSO zero; GFP/RFP ratio change, % at 20 µM; 360,000 compounds, 0.061% hits; AID 651647;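 active means GFP/RFP ratio change of at least 30% with cell ATP level not reduced by more than half and red fluorescence within 50% of control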; further: strong numbers were not always called active
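Test system: HT1080 RFP-PRO-GFP cells; Benchmarks: DMSO and RFP-L50D-GFP cell wells; Timing: cells overnight before dosing, compound overnight, 37 °C, 5% CO2; Compound: one 20 µM compound dose with 1% DMSO; Read-out: GFP/RFP fluorescence ratio.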
Yeast UUG start: alters start codon recognition fidelity in yeast; S. cerevisiae UUG-firefly luciferase reporter, luminescence/redox ratio; 350,000 compounds, 0.13% hits; activity score, % at 18.7 µM;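 active means replicate mean at a twofold rise or more, about +100% in these data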;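 further: firefly luciferase made from a UUG start codon reports start codon fidelity; reporter light over untreated wells divided by growth signal over untreated wells; some hits fall short of that in this replicate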
CSC inhib: cancer stem cell inhibition; cancer stem cell-like cells viability, luminescence; 300,000 compounds, 1.1% hits; inhibition, % at 7.5 µM;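 active means mean at 75% or more and at least half the replicates too; tested in HMLE shEcad cells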;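 further: 0% = median of negative and 100% = median of positive control wells; the first replicate is given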
eIF4H inh retest: second read-out of eIF4H inh, no call of its own (marks repeat the call); inhibition, %; compound at 20 µM; confirmation average;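 mean of two retest wells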
PABP polyA inh retest: recorded beside PABP polyA inh, whose call it bears; inhibition, %; compound at 20 µM; confirmation repeats;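 mean of two retest wells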
MT1-MMP act inh RFP: further read-out of MT1-MMP act inh, marked with its call; RFP signal change, %; measured here: RFP expression control read;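 0 = vehicle wells; hits needed this value within 50% of zero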
* = called active by the depositor; i = inactive; nt = not tested or not shown.

SMILES | eIF4H inh | PABP polyA inh | Env fusion inh | Rce1 inh | MT1-MMP act inh | MT1-MMP act inh RFP | Yeast UUG start | CSC inhib | others
CCOC(=O)c1cnc2c(CC)cccc2c1NCCCN1CCOCC1 | 10.0 | -3.6 | 19.2 | i | 1.6 | -0.7 | 3.0 | 14.0
Nc1ccc(Cl)c[n+]1Cc1cccc2cccnc12 | 7.6 | -2.2 | 8.0 | i | -0.7 | 3.1 | -6.2 | -10.9
CCOC(=O)c1cc(-c2ccccc2)sc1NC(=S)Nc1cccc(C)n1 | 5.4 | -2.0 | nt | i | 4.0 | 0.3 | -10.2 | -3.8
Cc1ccc(C(=O)NC2CCC(C)CC2)o1 (stereo not drawn) | nt | nt | -24.5 | i | -6.8 | -2.9 | -21.5 | nt
COc1ccc(CCN(C)C(=O)CCc2nnc(-c3ccccc3)o2)cc1OC | 0.4 | 11.9 | -51.6 | i | 0.4 | 4.2 | nt | -1.8
CCOC(=O)CNC(=O)CSc1ccc2nnc(-c3cccnc3)n2n1 | -5.6 | -8.2 | -9.8 | i | -0.2 | 0.1 | nt | 4.3
CC1=C(C(=O)OC(C)C)C(c2ccccn2)n2ncnc2N1 (stereo not drawn) | -10.9 | -6.5 | -45.0 | i | 2.7 | 4.3 | 9.1 | -3.3
Cc1ccc2nc(-c3ccc4c(c3)NC(=O)CO4)cn2c1 | -6.9 | 3.7 | -100.0 | i | -4.2 | -1.6 | nt | -14.9
CCOc1cccc(CNc2ccc(O)cc2)c1OCc1ccccc1Cl | 51.5 | 7.0 | nt | i | 21.7 | 20.8 | -12.0 | -0.1 | eIF4H inh retest=-3.6;PABP polyA inh retest=9.1
Cc1ccc(NC(=O)CN2CCN(S(=O)(=O)c3ccc(F)cc3)CC2)cc1C | nt | nt | nt | nt | 1.1 | -2.0 | -3.5 | -0.9
CCOC(=O)c1ccc(NC(=S)N2CCN(S(C)(=O)=O)CC2)cc1 | -8.6 | 6.6 | -20.5 | i | -0.5 | -1.5 | -8.0 | -8.1
Cc1ccc(S(=O)(=O)Cn2nnnc2C(c2ccccc2)N2CCN(c3ncccn3)CC2)cc1 (stereo not drawn) | 5.5 | -6.6 | -283.2 | i | -4.7 | -4.4 | -10.8 | 2.0
Cc1ccc(NC(=O)CN2C(=O)S/C(=C/c3ccc(-c4cccc(C(=O)O)c4)o3)C2=O)cc1 | 56.6 | 34.8* | 2.7 | nt | -10.2 | 1.4 | nt | nt | eIF4H inh retest=12.9;PABP polyA inh retest=63.5*
CCCC(=O)NC(Nc1ccccc1OC)C(Cl)(Cl)Cl (stereo not drawn) | -6.0 | -0.1 | 4.3 | i | 21.0 | -3.0 | -11.7 | -4.9
CC(C)C[C@H]1CN([C@@H](CC(C)C)CN2CCC[C@@H]2CN2C(=S)NC[C@@H]2Cc2ccc(O)cc2)C(=S)N1CC1CCCCC1 | nt | nt | 34.2 | nt | 0.8 | -11.7 | -25.1 | nt
CC1CN(C2=CC(=O)CCC2)CC(C)O1 (stereo not drawn) | 5.9 | 0.0 | 8.4 | i | -0.5 | 5.5 | nt | -13.8
COc1ccc(OC)c(NC(=O)CS(=O)(=O)Cc2ccccc2)c1 | 1.0 | -1.0 | -7.0 | i | 2.1 | 4.6 | -1.3 | nt
O=C(CN1C(=O)NC(CCc2ccccc2)C1=O)Nc1cccc(Br)c1 (stereo not drawn) | nt | nt | nt | nt | 8.0 | 4.4 | -8.4 | 22.6
COCCN1C2=C(C(=O)CC(C)(C)C2)C(c2ccc(O)c(OC)c2)C2=C1CC(C)(C)CC2=O | 2.4 | 3.1 | -3.1 | i | -1.1 | -0.5 | -18.2 | -12.9
CCOc1ccccc1NC(=O)c1cccc2ccccc12 | -9.9 | -5.2 | -4.1 | i | -1.3 | -0.2 | -4.0 | 16.4
CS(=O)(=O)N1CCN(C(=O)C2c3ccccc3Oc3ccccc32)CC1 | 2.3 | -6.0 | nt | i | 0.9 | 1.5 | 21.1 | nt
CC(C)(CO)NCC(=O)Nc1cc(C(F)(F)F)cc(NC(=O)CNC(C)(C)CO)c1Cl | 2.4 | 2.5 | nt | i | 0.6 | -1.6 | nt | -9.2
C/C(=N\NC(=O)c1ccccc1C)c1ccc(NC(=O)c2cccs2)cc1 | -13.2 | -14.5 | nt | i | 1.0 | 0.4 | -4.4 | -2.6
Cc1ccc(C(=O)Nc2ccc(N3CCN(C)CC3)cc2)cc1 | -8.9 | 7.0 | -55.1 | nt | 1.1 | -0.1 | -16.8 | -8.0
CCN(CC)S(=O)(=O)c1ccc(Cl)c(C(=O)OCC(=O)c2c(N)n(C)c(=O)n(C)c2=O)c1 | -2.4 | 16.5 | 11.2 | i | 7.6 | -9.2 | 13.1 | 0.5

Next part.
SMILES | eIF4H inh | PABP polyA inh | Env fusion inh | Rce1 inh | MT1-MMP act inh | MT1-MMP act inh RFP | Yeast UUG start | CSC inhib | others
Cn1ncc(Cl)c(Oc2ccccc2)c1=O | -1.9 | 2.4 | nt | i | -2.0 | 0.8 | nt | -12.3
O=C(CCN1CCc2ccccc2C1)Nc1ccc2c(c1)OCO2 | -9.9 | -10.7 | -26.6 | i | 3.8 | 3.5 | -21.6 | -7.8
Cc1ccc(CC(=O)OC(C)C(=O)NC2CCCCC2C)cc1C (stereo not drawn) | nt | nt | 4.2 | nt | 1.4 | -0.3 | -0.3 | nt
CC(C)CCNC(=O)[C@@H](Cc1ccccc1)NC(=O)CC[C@H]1O[C@@H](n2ccc(=O)[nH]c2=O)[C@H](O)[C@@H]1O | nt | nt | -10.5 | nt | 4.7 | 7.9 | -0.7 | nt
Cc1sc2nc3n(c(=O)c2c1C)CCCS3 | 1.6 | 2.9 | nt | i | 0.3 | 9.0 | -26.1 | -9.0
CCN1CCN(c2ccc(N=Cc3ccccc3O)cc2)CC1 | -2.3 | -0.6 | 0.9 | i | 1.0 | 3.8 | nt | 1.8
CCN(C(=O)/C=C/c1ccc(OC)cc1)C1CCCCC1 | -1.0 | -2.6 | -17.5 | i | 3.1 | 0.0 | 0.7 | 3.8
CC1(C(=O)NS(=O)(=O)c2ccc(C#N)cc2)CCN1C(=O)C1(c2ccccc2)CCCC1 (stereo not drawn) | nt | nt | 26.1 | nt | -12.1 | 2.7 | -1.6 | nt
Cc1ccc(S(=O)(=O)N2CCC(C(=O)N[C@H](C(=O)NC3CCS(=O)(=O)C3)C(C)C)CC2)cc1 (stereo partly drawn) | -0.4 | 0.1 | nt | i | 5.1 | 10.0 | -5.1 | -14.5
COc1ccc(S(=O)(=O)N(C)CC(=O)N2CCC(C(N)=O)CC2)cc1Cl | -12.5 | -6.5 | -11.9 | i | 4.0 | 4.4 | 1.4 | -10.5
Cc1ccccc1C1=NC(c2ccc(F)cc2F)ON1 (stereo not drawn) | 0.5 | 6.2 | nt | i | -1.1 | 5.6 | -6.8 | 3.7
COc1cc2nc(CCc3ccccc3)oc(=O)c2cc1OC | 12.7 | 3.7 | -0.7 | i | -2.2 | -0.8 | nt | -13.4
CN(Cc1cccc(-n2cccn2)c1)C(=O)CCc1nnc(C2CCCCC2)o1 | -10.2 | -3.7 | -3.4 | i | 6.5 | 2.1 | nt | -10.6
C=CCNC(=O)COc1ccc(Br)cc1Cl | -8.5 | -12.8 | -71.0 | i | -0.8 | -2.5 | -13.5 | -5.0
COc1ccc(OC)c(NC(=O)CCNS(=O)(=O)c2ccc3c(c2)CC(C)N3C(C)=O)c1 (stereo not drawn) | nt | nt | 17.1 | nt | 5.0 | 2.8 | -14.2 | nt
O=C(NCc1cccnc1)c1ccc(CS(=O)(=O)c2ccc(Br)cc2)o1 | 1.3 | 7.1 | -2.5 | i | -3.0 | -14.4 | -11.5 | -18.6
O=c1[nH]c(CCl)nc2cc(-c3ccc(F)cc3)sc12 | -8.5 | 3.8 | -54.3 | i | 0.9 | 0.4 | -81.8 | 24.5
O=C(NCc1ccccc1Br)c1ccncc1 | -3.3 | -3.6 | 8.8 | i | -5.2 | -3.7 | -4.2 | -6.0
COc1ccc(-n2cnc3ccccc32)cc1 | -2.6 | 2.2 | nt | nt | -8.9 | -4.5 | -22.1 | 12.8
FC(F)(F)c1cccc(-c2cc3nc(NC4CCCCC4)ccn3n2)c1 | nt | nt | 13.0 | nt | 4.6 | -3.9 | -1.0 | nt
CCNc1nc(Oc2ccc(Cl)cc2Cl)cc(C(F)(F)F)n1 | 0.6 | 4.0 | 22.2 | i | -12.8 | -12.4 | nt | -5.0
C=CCn1c(SCC(=O)Nc2ccc(F)cc2F)nc2c([nH]c3ccccc32)c1=O | 9.2 | 6.2 | 13.3 | i | -0.6 | 2.8 | -21.7 | -14.8
COc1ccc(CNC(=O)CC(NC(N)=O)c2ccccc2Cl)cc1OC (stereo not drawn) | -7.0 | -1.7 | -5.1 | i | 4.2 | -1.4 | 4.8 | -6.8
COC(=O)C(NC(=O)c1ccccc1Cl)(Nc1ncc(S(=O)(=O)c2ccc([N+](=O)[O-])cc2)s1)C(F)(F)F (stereo not drawn) | 0.6 | 1.2 | -51.7 | i | -12.2 | -21.3 | 3.5 | 1.4
Cc1cn([C@H]2C[C@H](O)[C@@H](CCC(=O)NCCc3ccc4ccccc4c3)O2)c(=O)[nH]c1=O | nt | nt | -2.2 | nt | 1.1 | 2.6 | 24.3 | nt
CN(C(=O)c1cccc(NC(=O)Cc2ccc(NC(=O)C3CCCN(C(=O)C4CCC4)C3)cc2)c1)C1CCC1 (stereo not drawn) | nt | nt | 14.3 | nt | 2.8 | 1.7 | 10.6 | nt
COC(=O)Nc1ccc(S(=O)(=O)N2CCC(C(=O)N3CCCC(C)C3)CC2)cc1 (stereo not drawn) | 4.1 | -1.2 | 12.2 | i | -1.4 | -2.4 | 2.7 | 1.3
CC(=O)Nc1ccc(NC(=O)c2ccc(CN3CCc4ccccc4C3)cc2)cc1 | 2.8 | 1.1 | 18.4 | i | 4.8 | -1.4 | -22.2 | 8.1

A stretch from further up:
SMILES | eIF4H inh | PABP polyA inh | Env fusion inh | Rce1 inh | MT1-MMP act inh | MT1-MMP act inh RFP | Yeast UUG start | CSC inhib | others
Cn1ncc(Cl)c(Oc2ccccc2)c1=O | -1.9 | 2.4 | nt | i | -2.0 | 0.8 | nt | -12.3
O=C(CCN1CCc2ccccc2C1)Nc1ccc2c(c1)OCO2 | -9.9 | -10.7 | -26.6 | i | 3.8 | 3.5 | -21.6 | -7.8
Cc1ccc(CC(=O)OC(C)C(=O)NC2CCCCC2C)cc1C (stereo not drawn) | nt | nt | 4.2 | nt | 1.4 | -0.3 | -0.3 | nt
CC(C)CCNC(=O)[C@@H](Cc1ccccc1)NC(=O)CC[C@H]1O[C@@H](n2ccc(=O)[nH]c2=O)[C@H](O)[C@@H]1O | nt | nt | -10.5 | nt | 4.7 | 7.9 | -0.7 | nt
Cc1sc2nc3n(c(=O)c2c1C)CCCS3 | 1.6 | 2.9 | nt | i | 0.3 | 9.0 | -26.1 | -9.0
CCN1CCN(c2ccc(N=Cc3ccccc3O)cc2)CC1 | -2.3 | -0.6 | 0.9 | i | 1.0 | 3.8 | nt | 1.8
CCN(C(=O)/C=C/c1ccc(OC)cc1)C1CCCCC1 | -1.0 | -2.6 | -17.5 | i | 3.1 | 0.0 | 0.7 | 3.8
CC1(C(=O)NS(=O)(=O)c2ccc(C#N)cc2)CCN1C(=O)C1(c2ccccc2)CCCC1 (stereo not drawn) | nt | nt | 26.1 | nt | -12.1 | 2.7 | -1.6 | nt
Cc1ccc(S(=O)(=O)N2CCC(C(=O)N[C@H](C(=O)NC3CCS(=O)(=O)C3)C(C)C)CC2)cc1 (stereo partly drawn) | -0.4 | 0.1 | nt | i | 5.1 | 10.0 | -5.1 | -14.5
